# gsp agonist: qHTS for Agonist of gsp, the Etiologic Mutation Responsible for Fibrous Dysplasia/McCune-Albright Syndrome: qHTS; Potency, µM (top dose mostly 76.9 µM), without a hit: at the top dose activation (cAMP increase), hits mostly activators; 340,000 tested, 0.13% active; AID 624287, 2012; gsp mutant cells, cAMP HTRF, 30 min; control for the full effect not named in the record; active = well fitted activation curve with a large enough effect; inconclusive = small, poorly fitted or top-dose-only effect, or another doubt; inactive = no such curve, though single readings can be large or run the other way; cell line not stated here;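 note: phosphodiesterase inhibitor Ro 20-1724 added with compounds to block cAMP breakdown; potency is the fitted concentration of half-maximal effect; nearly all actives have a fitted effect of over 60% in size; about a fifth of the inactives were tested at one dose only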
#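 Cells in DMEM/10% FBS with G418 were pretreated with compounds in DMSO plus […] (300 uM stock) for 30 min at 37C. cAMP was measured by HTRF (cAMP-d2 plus anti-cAMP antibody-K) after 30 min at room temperature.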
# PINK1 modulator: A Quantitative High throughput Screen to Identify Chemical Modulators of PINK1 Expression. 410,000 tested, 0.2% active. PINK1 immunofluorescence, high-content cytometry, 24 h. Potency, µM (doses to about 76.6 µM), for inactives: top-dose activation (PINK1 increase), actives largely listed as activators; active = well fitted activation curve with a large enough effect; inconclusive = small, poorly fitted or top-dose-only effect; inactive = flat fitted curve, though single readings scatter; cell line not stated here;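 note: potency is the fitted concentration of half-maximal effect; % of control where 0% means no effect; nearly all actives have a fitted effect of over 65% in size; a mitochondrial uncoupler was the plate control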
#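 PINK1 protein, normally rapidly degraded, was detected by immunofluorescence after 24 hour compound treatment of a stable cell line. Titration data (5 concentrations) came from laser-scanning cytometry, with CCCP-treated wells as controls.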
# D2 agonist: Beta-Arrestin HTS for Positive Allosteric Modulators of the Human D2 Dopamine Receptor: Agonists; D(2) dopamine receptor (Homo sapiens), P14416; DiscoveRx PathHunter D2 beta-arrestin, luminescence, 90 min; 100% = 57 uM dopamine signal; activation, % (no concentration beside the values); 360,000 tested, 0.084% active; AID 624465, 2012; in the data active = activation above about 40%; inconclusive = about 15% to 40%; inactive = below about 15%; note: compound concentration not given in the record; the text of the record calls up to 30% inactive
# Target sequence (P14416 whole entry, looked up): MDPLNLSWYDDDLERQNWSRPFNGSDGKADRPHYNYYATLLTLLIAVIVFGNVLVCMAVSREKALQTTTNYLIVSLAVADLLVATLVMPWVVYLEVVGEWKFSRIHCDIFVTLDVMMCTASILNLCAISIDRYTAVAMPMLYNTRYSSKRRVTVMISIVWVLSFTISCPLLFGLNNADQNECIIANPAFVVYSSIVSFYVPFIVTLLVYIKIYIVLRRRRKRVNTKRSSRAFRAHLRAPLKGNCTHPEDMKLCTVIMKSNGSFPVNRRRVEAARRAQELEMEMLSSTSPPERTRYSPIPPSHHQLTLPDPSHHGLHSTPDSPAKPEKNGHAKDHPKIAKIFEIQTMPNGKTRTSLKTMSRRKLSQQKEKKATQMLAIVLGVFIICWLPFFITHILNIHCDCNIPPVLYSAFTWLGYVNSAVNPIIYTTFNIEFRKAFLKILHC
#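 DiscoveRx PathHunter D2 beta-arrestin cells (2,100/well) attached overnight, then compound-stimulated 90 min at 37 C in HBSS/10 mM HEPES/0.1% Tween-20 buffer; beta-galactosidase complementation read by luminescence after 1 h at ambient temperature. Dopamine 57 uM final (EC100) as control.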
# ClpP mod: qHTS Assay for Activators of ClpP; 340,000 tested, 1.9% active; Potency, µM (highest dose often 57.5 µM), for inactives: at the top dose activity change, negative = active; ATP-dependent Clp protease proteolytic subunit (Bacillus subtilis (strain 168)), P80244; purified B. subtilis ClpP, FRET peptide cleavage, 20 min; active = well fitted falling curve with a large enough effect; inconclusive = small, poorly fitted or top-dose-only effect; inactive = no such curve, though single readings can be large or run the other way; note: potency is the fitted concentration of half-maximal effect; the source files actives as falling curves though it sought activators and does not explain the sign; nearly all actives have a fitted effect of over 65% in size; many hits overshoot -100%
# Target sequence (P80244 whole entry, looked up): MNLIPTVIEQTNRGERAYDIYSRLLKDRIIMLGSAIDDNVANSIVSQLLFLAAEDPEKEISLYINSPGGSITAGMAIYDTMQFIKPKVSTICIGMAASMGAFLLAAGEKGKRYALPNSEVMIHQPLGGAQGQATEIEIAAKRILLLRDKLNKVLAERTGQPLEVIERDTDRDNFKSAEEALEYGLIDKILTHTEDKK
#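 FRET quenching reversal measured ClpP activation: 10 microg/mL B. subtilis ClpP at pH 8 with the FRET-FV decapeptide, read at 430 nm after 320 nm excitation. The 20-min minus 0-min signal was scaled between DMSO/no-enzyme wells and ADEP (5.8 microM final).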
# Sfp PPTase inh: qHTS Assay for Inhibitors of Bacillus subtilis Sfp phosphopantetheinyl transferase (PPTase). Biochemical Sfp PPTase activity, qHTS. Potency, µM, without a hit: max response, negative = inhibition, actives largely listed as inhibitors. 310,000 tested, 3.5% active. AID 1490, 2009; active = well fitted inhibition curve with a large enough effect; inconclusive = small, poorly fitted or top-dose-only effect, or another doubt; inactive = no such curve, though single readings can be large or run the other way;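 note: the enzyme is Sfp with the accession as filed and its product quenches rhodamine fluorescence; potency is the fitted concentration of half-maximal effect; 0% = enzyme reaction without inhibitor and -100% = no enzyme wells; top concentration of the series not given in the record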
#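 Compounds were incubated with enzyme (final 15 nM) for 15 min at room temperature before substrate addition started the reaction. Fluorescence at 525 nm excitation, 598 nm emission was recorded immediately and after 30 minutes.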
# gsp antagonist: qHTS for Antagonists of gsp, the Etiologic Mutation Responsible for Fibrous Dysplasia/McCune-Albright Syndrome: qHTS. AID 624288, 2012. 340,000 tested, 0.4% active. Potency, µM (doses to about 76.9 µM), for inactives: at the highest dose activity change, negative = inhibition, actives largely listed as inhibitors. gsp-mutant cells, cAMP HTRF, 30 min; control for the full effect not named in the record; active = falling curve of any shape with a large fitted effect; inconclusive = falling curve, mostly with a smaller effect; inactive = flat or rising curve; cell line not stated here;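 note: intracellular cAMP measured with PDE inhibitor Ro 20-1724 present during compound exposure; potency is the fitted concentration of half-maximal effect; % is set by controls: 0 for no effect and ±100 for the full control effect; nearly all actives have a fitted effect of over 65% in size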
#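 Cells in G418 medium, seeded 16-24 h, 37C; buffer exchange to DPBS + 1 mM CaCl2, 0.5 mM MgCl2, 0.05% BSA; cpds in DMSO + […] (300 uM stock), 30 min 37C; HTRF cAMP detection.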
# Menin MLL FP FL: qHTS Assay for Inhibitors Targeting the Menin-MLL Interaction in MLL Related Leukemias: Competition With Fluorescein Labeled MLL-derived Peptide | FP activity change, % at 61.4 µM | AID 1766, 2009 | 290,000 tested, under 10 active | Fluorescence polarization, fluorescein-MLL peptide displacement from menin; inconclusive = falling polarisation curve, or a change in total fluorescence; inactive = total fluorescence flat and polarisation flat or rising; no compound was filed as active; the % refers to the polarisation; negative = inhibition;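 note: % of control where 0% means no effect; inhibitors lower the polarisation; unlabelled MLL peptide was the positive control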
# Active calls of the source: *; ? = inconclusive; . = not tested or not shown; [ ] = remark or other dose. Rows are unselected. About 5.1% of those tested had a hit in this group.
SMILES,gsp agonist,PINK1 modulator,D2 agonist,ClpP mod,Sfp PPTase inh,gsp antagonist,Menin MLL FP FL
Clc1ccc(N2CCN(Cc3ccco3)CC2)cc1,18%[15.4 µM],7.4%,-0.2,-20%,-10%,3%,-1.2
Cc1cccc(-n2ncc3c(NCc4ccc5c(c4)OCO5)ncnc32)c1,0%,.,1.0,-4.1%,9%,13%,-1.0
CCOCC(=O)Nc1cccc(NC(C)=O)c1,-30%,0.1%,-3.6,-2.6%,15%,-11%,2.7
Cc1ccc(CC2CC(=O)N(c3ccncc3)C2=O)cc1 (stereo unspecified),-33%[inhibitor],-1.1%,-1.3,-0.4%,-1%,3%,3.5
COc1ccccc1S(=O)(=O)Nc1cccc(-c2nnc3n2CCCCC3)c1,-25%,-0.9%,-2.3,-2.2%,19%,-3%,-1.5
CN1CCN(S(=O)(=O)c2cccc(C(=O)O)c2)CC1,0%,1.4%,-1.4,-0.2%,15%,4%,-2.8
Cc1cnc(C(=O)OCC(=O)c2ccc(Br)s2)cn1,60%[15.4 µM],-0.3%,-5.8,.,.,10%,.
COc1ccc(CSC2=NCCN2)cc1Br,-13%,-0.8%,-2.2,-1.3%,7%,7%,-9.4
CC(=O)c1cccc(NC(=O)/C(=C\c2cccnc2)NC(=O)c2ccco2)c1,9%,9.0%,6.6,.,7%,4%,-2.0
Cc1ccc(NC(=O)C2(C)CCN2CCc2ccccc2)cc1O (stereo unspecified),.,5.7%,-6.6,0.2%,.,.,.
O=C(c1cc2n(n1)C(C(F)(F)F)CC(c1ccco1)N2)N1CCc2ccccc2C1 (stereo unspecified),-8%,1.7%,-6.8,-0.6%,13%,-10%,15
CCCC(=O)Nc1ncnc2c1ncn2[C@@H]1O[C@@H]2OP(=O)(O)OC[C@H]2[C@H]1OC(=O)CCC,.,1.8%,-1.7,1.1%,.,42%[activator],.
CCOc1cc(-c2nc(C)c(C(C)=O)n2O)ccc1OCC(=O)Nc1ccc(F)cc1,?,8.2%,-4.9,0.0%,-3%,?,-4.6
O=C(c1ccccc1)c1ccc(Oc2ccc([N+](=O)[O-])cc2[N+](=O)[O-])cc1,-4%,0.7%,11,.,.,-5%,.
CC1=CC(C)(C)[N+](C)(C)c2ccc(C)cc21,-4%,3.3%,-2.3,.,15%,5%,1.8
COC(=O)Cc1cc(=O)n2[nH]c(C(F)(F)F)nc2n1,0%,1.2%,-2.9,0.7%,-24%,8%,?
Cc1ccc(-c2nnc(CCC(=O)NCc3csc(C)n3)o2)s1,?,-0.8%,-2.9,-12%,19%,13%,3.9
CCN1CCCC1CNC(=O)Cn1cc2c(n1)CCC(C)C2 (stereo unspecified),-6%,1.2%,-5.3,-1.4%,10%,9%,-1.6
C=CCN1C(=O)/C(=C\c2ccc(OC(=O)c3ccco3)c(OC)c2)SC1=S,-43%[inhibitor],-1.6%,0.0,-1.1%,1%,5%,?
Cc1nn(C)c(C)c1NC(=O)COc1ccccc1C#N,11%,1.2%,5.4,0.4%,.,3%,.
O=c1c2ccccc2cnn1Cc1nnc(-c2cccs2)o1,9%,2.6%,-2.2,.,9%,-5%,3.1
N#Cc1cnc2nc1NCCCCCCC2,-1%,-0.2%,-5.2,-24%,.,.,.
O=C(NCCSc1c[nH]c2ccccc12)c1ccco1,-31%[inhibitor],1.4%,-4.3,0.2%,2%,10%,0.5
O=C(O)c1ccc2nc(CO)[nH]c2c1,6%,-3.4%,-2.8,-1.0%,8%,-5%,5.2
CC(Nc1cc(N2CCN(S(=O)(=O)N(C)C)CC2)ccc1[N+](=O)[O-])c1ccccc1 (stereo unspecified),22%,0.3%,2.1,.,3%,-13%,-1.4

# Additional records
SMILES,gsp agonist,PINK1 modulator,D2 agonist,ClpP mod,Sfp PPTase inh,gsp antagonist,Menin MLL FP FL
CSCCC(NC(N)=O)C(=O)NCc1ccccc1Cl (stereo unspecified),8%,-0.6%,1.9,-2.5%,16%,14%,0.3
COc1ccc(C(=O)N(C)[C@H]2C[C@H]3c4[nH]c5ccccc5c4CCN3C(=O)[C@H]2CO)cc1,-5%,-0.4%,-5.7,7.6%,.,.,.
CCCCC(CC)C(=O)Nc1cccc(SC)c1 (stereo unspecified),7%[15.4 µM],1.8%,-5.5,.,10%,2%,0.3
CCOC(=O)C1(C)NC(c2ccco2)C2C(=O)N(c3ccc(C)cc3)C(=O)C21 (stereo unspecified),4%,-0.3%,-0.7,3.7%,1%,5%,1.8
CC(C)n1c(=O)c2ccccc2n1C(=O)c1ccccc1,.,0.7%,-1.4,15%,.,.,.
CC(=O)N1CSCC1C(=O)N1CCN(c2ccc(N3CCOCC3)nn2)CC1 (stereo unspecified),-2%,1.0%,-2.8,5.0%,-9%,9%,-0.4
CC(C)CCNC(=O)NC(=O)COC(=O)/C=C/c1cc(Br)ccc1F,15%[15.4 µM],7.4%,-4.5,.,14%,5%,1.3
Cc1ccc(S(=O)(=O)N(C)C)cc1NC(=O)COC(=O)CN1C(=O)c2ccccc2C1=O,0%,0.1%,-3.9,-0.1%,.,-10%,.
Cc1cc(O)c(C(C)C)cc1NC(=O)c1cccc(Cl)c1,10%,.,0.4,-0.6%,7%,-20%,0.6
CC(C)C(=O)Nc1cccc(-c2nc3ccccc3c(=O)o2)c1,21%,-1.3%,-8.2,-2.4%,26%,3%,4.9
CCCCN(Cc1ccccc1)C(=O)C1CCN(Cc2sccc2C)CC1,-3%,?,-2.4,-6.7%,-17%,10%,0.9
Cc1cc(NC(=O)/C(C#N)=C\c2ccc(-c3ccc(SC(F)F)cc3)o2)n(-c2ccccc2)n1,6%,?,3.8,.,.,-2%,.
COc1ccccc1CC(NC(C)=O)C(=O)N1CCN(C(=O)c2cccs2)CC1 (stereo unspecified),-47%[inhibitor],-0.3%,-1.9,-1.0%,10%,7%,1.5
Cc1ccc(S(=O)(=O)N2CCOCC2)cc1NC(=O)COC(=O)c1ccc2c(c1)OCCO2,1%,4.3%,-1.8,.,6%,-13%,-4.0
COC(=O)c1ccc2c(=O)[nH]c(CCl)nc2c1,1%,-3.5%,1.5,.,15%,3%,-0.6
O=C(CN1CCOCC1)Nc1ccc(Cl)c(Cl)c1,-10%,0.1%,0.0,1.0%,-14%,8%,-1.1
COc1ccc(-c2ccc3c(N)c(C(=O)NC(C)C)sc3n2)cc1OC,1%[15.4 µM],0.9%,?,.,?,5%,3.6
CCOC(=O)/C(=N/Nc1ccc(OC)cc1)Sc1nnc(CCc2ccccc2)n1-c1ccccc1,-6%[15.4 µM],-1.3%,-4.7,.,-10%,?,-1.0
CO/N=C(/CNC(=O)c1ccccc1Cl)c1ccc(Cl)cc1,?,1.2%,-2.4,-5.2%,14%,-7%,-0.2
COCCn1c(C)cc(/C=C(\C#N)C(=O)OCC(=O)N(C)c2c(N)n(Cc3ccccc3)c(=O)[nH]c2=O)c1C,1%,2.5%,0.5,-0.9%,.,7%,.
CCCCc1cc(=O)oc2cc(OCC(=O)NCCN3CCOCC3)ccc12,20%,-0.1%,-2.5,3.9%,11%,12%,-2.8
CNS(=O)(=O)c1ccc(NC(=O)C2CC(=O)N(c3ccc(Cl)cc3)C2)cc1 (stereo unspecified),-4%[15.4 µM],-0.9%,1.6,.,16%,.,-1.6
CCCN1CCC(NC(=O)CC2C(=O)NCCN2Cc2ccccc2C)CC1 (stereo unspecified),2%,-0.5%,-3.5,-8.6%,14%,8%,-12
Cc1ccc(OCC(=O)Nc2oc(-c3ccccc3)c(-c3ccccc3)c2C#N)cc1,-39%[inhibitor],-0.8%,-1.8,?,.,?,.
COc1ccc(C2Nc3ccccc3C(=O)N2c2ccc(C)cc2)cc1Cn1nc(C)c([N+](=O)[O-])c1C (stereo unspecified),-4%,-2.6%[38.3 µM],-1.6,-4.6%,20%,-16%,3.5

# Next part.
SMILES,gsp agonist,PINK1 modulator,D2 agonist,ClpP mod,Sfp PPTase inh,gsp antagonist,Menin MLL FP FL
O=C(CSc1ccccc1F)NCCN1C(=O)CSC1=O,-20%,1.2%,-1.7,0.9%,.,-9%,.
O=C(Cc1ccccc1)N1CCN(c2ncccn2)CC1,-44%[inhibitor],0.1%,4.0,-8.3%,25%,-9%,-1.0
Cc1ccc(-c2cc(C(=O)Nc3ccccc3C)c3ccccc3n2)o1,?,-0.1%,-3.4,?,8.9µM*,-22%,6.7
COc1ccc(OCCOC(=O)c2nc3nccc(C)n3n2)cc1,?,1.5%,-3.3,0.1%,20%,4%,-1.7
CCCCCCC(=O)N(O)C1CC(=O)N(c2ccc(Cl)cc2)C1=O (stereo unspecified),-2%[15.4 µM],4.9%,3.8,.,25µM*,9%,-1.4
COc1ccc(CNC(=O)Cn2ncn3c(cc4ccccc43)c2=O)cc1,-1%[15.4 µM],4.1%,1.5,.,-18%,9%,1.9
CCC(=O)OCC(=O)Nc1cc(S(=O)(=O)N(C)C)ccc1Cl,3%[15.4 µM],1.7%,-2.5,0.1%,23%,3%,-0.2
CCOC(=O)Nc1sc(C(=O)N(CC)CC)c(C)c1C(=O)OCC,-17%,-2.4%,-5.9,-2.8%,-36%,-4%,1.4
CCNC(=S)N1CCCC(C(N)=O)C1 (stereo unspecified),1%[15.4 µM],-0.9%,0.0,.,18%,1%,0.3
COCCN(C(=O)COc1ccccc1C#N)c1c(N)n(Cc2ccccc2)c(=O)[nH]c1=O,-6%[15.4 µM],-2.9%,0.5,.,.,6%,.
Cc1cccc(C)c1NS(=O)(=O)c1cc2c3c(c1)CCN3C(=O)CC2,-44%[inhibitor],1.9%,-3.1,-1.5%,.,-1%,.

# Assay outcomes from PubChem.
